Beta cell apopt – blocks beta cell apoptosis | AID 435005 | actives 0.8% (n = 300,000) | INS-1E cytokine-induced death, ATP luminescence, 48 h; percent of positive-control rescue, neutral wells zero | protection from apoptosis, % (concentration not given with the values);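 active means all replicates at 75% or more, or half of them and the mean; inconclusive means half reach 75% but not the mean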;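 further: 0% = cytokine-treated negative control wells and 100% = positive control rescue; higher means more ATP so stronger rescue from cytokine killing; wells of about 40 µL received 100 nL stock; the first replicate is given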
ALR H2O2 inh – inhibitors of human sulfhydryl oxidase ALR. actives 3.8% (n = 290,000). purified ALR, DTT oxidation, H2O2 HRP-luminol luminescence. inhibition, % (test concentration not listed). P55789;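 active means mean and each replicate at 75% or more; inconclusive means only one of the two met; inactive means neither met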;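 further: stock transfer was 7.5 nL into about 7.5 µL; 0% = neutral wells and 100% = wells with inactivated enzyme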
Target sequence (P55789 whole entry, looked up): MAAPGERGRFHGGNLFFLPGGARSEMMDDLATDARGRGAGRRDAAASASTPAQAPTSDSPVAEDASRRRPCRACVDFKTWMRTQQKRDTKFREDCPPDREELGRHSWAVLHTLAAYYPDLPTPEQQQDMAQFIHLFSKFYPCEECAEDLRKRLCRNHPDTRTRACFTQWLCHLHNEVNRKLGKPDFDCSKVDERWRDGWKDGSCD
Calb FLC – affects C. albicans growth with fluconazole | C. albicans CaCi-2 (fluconazole-resistant clinical isolate) + fluconazole, Alamar Blue growth, 48 h | growth inhibition, % (concentration not given with the values) | actives 0.57% (n = 300,000) | AID 1979;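 active means most replicates above 75%; inconclusive means exactly half above 75%; inactive means most below 75%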;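 further: all wells also contain fluconazole at 8 µg/ml as a sub-toxic cotreatment; 0% = median of DMSO wells and 100% = median of geldanamycin control wells; wells of about 8 µL received 7.5 nL stock; the first replicate is given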
LANA-H2A inh – blocks KSHV LANA binding to histone H2A/H2B; Q9QR71; cell-free LANA-H2A/H2B peptide, fluorescence polarization; actives 0.6% (n = 320,000); inhibition, % (test concentration not listed); AID 2629; in the data active means inhibition mostly above about 10%, no sharp cut-off; inactive means mostly below about 6.7%;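 further: stock transfer was 7.5 nL into about 10 µL; 0% = median of vehicle wells and 100% = median of positive control wells; one replicate is shown; the record names a cut of 25% in any replicate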
Ecoli rRNA inh – selective bacterial rRNA inhibition in E. coli; E. coli WT GFP vs humanized-ribosome RFP mutants, fluorescence, 24 h; active compounds read low; DMSO median 0, no signal -100; GFP signal change (wild-type ribosome), % (test concentration not listed); actives 1.6% (n = 350,000);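 active means significant combined selectivity score with lowered wild-type GFP, culture density cut under 30%, mutant RFP and density less affected; inactive means any of these conditions unmet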; further: one replicate is shown; some compounds called inactive have numbers as strong as hits
Bfl-1 A1 inh – inhibitors of the anti-apoptotic protein A1, read as caspase activation | MEF A1-2A-BIM cells, Caspase-Glo 3/7 luminescence, 3 h; percent of clofoctol response, vehicle zero | caspase activation, % (test concentration not listed) | actives 0.066% (n = 330,000);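 active means over half of replicate activation scores above 10%, or exactly half above 10 with the replicate mean above 10; inconclusive means replicate mean below 10 yet half the replicates above 10; inactive means over half of replicates below 10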;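 further: wells of about 30 µL received 50 nL stock; many hits fall short of the cut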
T cruzi repl – T. cruzi replication inhibition. T. cruzi beta-gal in NIH3T3, luminescence, 90 h. inhibition, % (test concentration not listed). actives 1.4% (n = 300,000);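 active means mean inhibition across valid replicates above about 55%, limit read from the data; inconclusive means mean below that limit but half or more replicates reach it; inactive means mean below it, under half of replicates reach it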;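 further: signal also drops with host cell toxicity which is not excluded here; 0% = plate median of DMSO wells and 100% = zero luminescence signal; higher percent means less beta-gal luminescence so fewer parasites; stock transfer was 50 nL into about 50 µL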
Beta2AR agonist – activates human beta-2 adrenergic receptor causing internalization; P07550; Am2.2-beta2AR cells, FAP receptor internalization, flow cytometry; reference of the scale not given here; response, % (test concentration not listed); actives 0.43% (n = 340,000); AID 504454;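 active means response above a set limit, near 3 SD of response in nonfluorescent compounds, cut at about 42% in these data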;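 further: stock transfer was 100 nL into about 11 µL; a reference agonist was the positive control; negative values mostly stem from fluorescent compounds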
Target sequence (P07550 whole entry, looked up): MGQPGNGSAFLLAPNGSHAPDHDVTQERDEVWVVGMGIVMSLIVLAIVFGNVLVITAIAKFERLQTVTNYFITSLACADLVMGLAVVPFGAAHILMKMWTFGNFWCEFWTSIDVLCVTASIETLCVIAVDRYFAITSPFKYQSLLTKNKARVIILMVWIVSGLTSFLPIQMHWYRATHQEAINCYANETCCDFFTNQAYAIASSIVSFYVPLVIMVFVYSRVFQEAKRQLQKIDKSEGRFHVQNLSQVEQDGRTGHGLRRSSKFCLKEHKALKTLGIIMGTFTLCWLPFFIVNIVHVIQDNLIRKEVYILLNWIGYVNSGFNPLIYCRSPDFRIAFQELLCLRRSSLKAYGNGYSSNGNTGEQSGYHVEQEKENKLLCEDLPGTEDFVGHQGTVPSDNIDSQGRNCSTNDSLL
Ecoli rRNA inh OD600 – also measured in Ecoli rRNA inh; calls as there; OD600 change, %; measured here: OD600 growth;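 optical density of the mix in the first replicate; 0 = DMSO median and -100 = no signal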
Ecoli rRNA inh RFP – second read-out of Ecoli rRNA inh, no call of its own (marks repeat the call); RFP signal change, %; measured here: RFP humanized mutant strains;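 first replicate; 0 = DMSO median and -100 = no signal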
* hit, by the source's call; u = inconclusive; x = not tested or not shown. Only part of the results is shown, so the mix of outcomes need not match the whole.

canonical_smiles	Beta cell apopt	ALR H2O2 inh	Calb FLC	LANA-H2A inh	Ecoli rRNA inh	Ecoli rRNA inh OD600	Ecoli rRNA inh RFP	Bfl-1 A1 inh	T cruzi repl	Beta2AR agonist
Clc1cc(Cl)cc(C2=NC(Cc3ccccc3)CO2)c1 (stereo unspecified)	-3	-4	-8	3.1	-15	-21	-5.9	0.3	9	14
OC[C@@H](O)C1OC2NC(=S)OC2C1O (stereo partly specified)	-7	-3	-1	4.8	0	5	-0.4	1.0	-35	6
Cc1ccc(-c2nnc(SCC(=O)NNC(=O)COc3ccccc3C)n2C)cc1	-4	-3	-8	1.2	15	2	-7.5	0.2	-8	-9
CC(C)OCCCNC(=O)c1ccc(Br)cc1	0	-5	-1	1.3	x	x	x	0.0	2	-3
Cc1ccc(-n2c(O)c(C=NC3CCS(=O)(=O)C3)c3ccccc3c2=O)cc1C (stereo unspecified)	6	1	2	-3.2	10	8	0.9	0.7	7	-18
CC(C)c1ccc(/C=C/C(=O)Nc2nncs2)cc1	1	-1	0	-2.7	-2	2	5.9	-6.4	-12	3
O=[N+]([O-])c1ccc(N2CCN(S(=O)(=O)c3ccccc3[N+](=O)[O-])CC2)cc1N1CCc2ccccc2C1	2	2	0	-0.7	1	11	0.3	0.5	9	-2
O=C(NCc1nc2ccccc2[nH]1)C1=C[C@@H](c2ccccc2)C[C@@H](OCc2ccc(CO)cc2)O1	x	4	-8	-3.8	-15	-17	7.1	1.3	9	-10
CCOC(=O)c1ccc(S(=O)(=O)NCCN2CCOCC2)cc1	1	1	-8	-0.1	14	15	2.1	0.3	-3	0
CCOC(=O)c1c(C)[nH]c(C(=O)OCC(=O)Nc2ccc(OCC)cc2)c1C	-5	54	-15	8.7	x	x	x	0.2	-4	-1
Cc1cc(C)nc(N2CCCC(C(=O)Nc3nnc(C)s3)C2)n1 (stereo unspecified)	2	-5	-5	1.7	x	x	x	0.4	4	-8
Cc1ccc(NC(=O)c2ccc3c(c2)CCN3S(C)(=O)=O)cc1C	4	3	1	-2.7	-5	-2	-3.1	0.6	-8	2
COCCN(C(=O)CN1CCCc2ccccc21)c1c(N)n(Cc2ccccc2)c(=O)[nH]c1=O	-4	19	u	0.2	x	x	x	0.4	-9	-10
CNC(=S)NNC(=O)c1cccc(N(C)C)c1	-1	47	-3	-3.4	11	21	1.4	0.4	-12	9
CCNS(=O)(=O)c1cc(OC)ccc1OC	-11	-27	-1	-6.4	x	x	x	0.1	-3	0
c1ccc(NNC2=NCCCCC2)cc1	2	99*	-16	1.8	13	16	-1.7	0.9	13	2
Cc1ccc(S(=O)(=O)c2nc(-c3ccccc3)oc2NCCN2CCOCC2)cc1	x	3	17	1.8	x	x	x	-0.5	21	-6
COc1cccc(CC2(CO)CCCN(Cc3cnn(-c4ccccc4)c3)C2)c1 (stereo unspecified)	-4	-1	-22	-6.3	4	-1	3.1	0.3	u	-10
O=C(c1ccc(S(=O)(=O)c2ccccc2)cc1)N1CCCCCC1	0	-28	-1	0.1	x	x	x	-0.6	7	-1
O=C(Nc1cccnc1)c1ccc(Cl)c(S(=O)(=O)N2CCOCC2)c1	2	-4	2	-1.7	7	5	0.7	-0.6	1	1
COc1cc(C=Nc2c(C)cc(C)cc2C)ccc1OC(C)=O	-3	7	-3	0.2	12	8	-9.4	-1.1	-22	2
O=C(O)/C=C/c1cccc(NC(=O)Nc2ccc([N+](=O)[O-])cc2)c1	-6	54	x	5.4	-4	1	-0.9	-0.3	-14	1
COc1ccccc1N=CC1=C(O)CC(c2ccccc2)CC1=O (stereo unspecified)	-1	1	-12	-14	11	12	0.2	-0.2	-15	-8
CN(Cc1cccc(F)c1)C(=O)C(c1ccccc1)c1ccccc1	2	3	6	6.7	-4	-28	-2.9	0.2	6	-1
CC1=CC(C)(C)N(C(=O)CSc2nnc(N)s2)c2cc(C)c(C)cc21	-7	-17	36	3.3	x	x	x	0.1	11	1
COCCNCCCCOc1ccccc1-c1ccccc1	3	-15	-3	-0.7	x	x	x	-0.3	-10	-1
COc1cc2ccccc2cc1C(=O)N1CCCCC1	-9	-4	10	-5.2	2	-4	-1.2	0.0	3	2
O=C1CC(c2ccc(O)c(O)c2)Oc2cc(O)cc(O)c21 (stereo unspecified)	2	99*	-2	6.4	x	x	x	-0.1	-37	12

Quoted at random: 2 entries already listed
canonical_smiles	Beta cell apopt	ALR H2O2 inh	Calb FLC	LANA-H2A inh	Ecoli rRNA inh	Ecoli rRNA inh OD600	Ecoli rRNA inh RFP	Bfl-1 A1 inh	T cruzi repl	Beta2AR agonist
CN(Cc1cccc(F)c1)C(=O)C(c1ccccc1)c1ccccc1	2	3	6	6.7	-4	-28	-2.9	0.2	6	-1
COCCNCCCCOc1ccccc1-c1ccccc1	3	-15	-3	-0.7	x	x	x	-0.3	-10	-1

Laid out differently: results already given
Below each SMILES – Beta cell apopt	ALR H2O2 inh	Calb FLC	LANA-H2A inh	Ecoli rRNA inh	Ecoli rRNA inh OD600	Ecoli rRNA inh RFP	Bfl-1 A1 inh	T cruzi repl	Beta2AR agonist
CNC(=S)NNC(=O)c1cccc(N(C)C)c1
→ -1	47	-3	-3.4	11	21	1.4	0.4	-12	9
CCNS(=O)(=O)c1cc(OC)ccc1OC
→ -11	-27	-1	-6.4	x	x	x	0.1	-3	0
c1ccc(NNC2=NCCCCC2)cc1
→ 2	99*	-16	1.8	13	16	-1.7	0.9	13	2
Cc1ccc(S(=O)(=O)c2nc(-c3ccccc3)oc2NCCN2CCOCC2)cc1
→ x	3	17	1.8	x	x	x	-0.5	21	-6
COc1cccc(CC2(CO)CCCN(Cc3cnn(-c4ccccc4)c3)C2)c1 (stereo unspecified)
→ -4	-1	-22	-6.3	4	-1	3.1	0.3	u	-10
O=C(c1ccc(S(=O)(=O)c2ccccc2)cc1)N1CCCCCC1
→ 0	-28	-1	0.1	x	x	x	-0.6	7	-1
O=C(Nc1cccnc1)c1ccc(Cl)c(S(=O)(=O)N2CCOCC2)c1
→ 2	-4	2	-1.7	7	5	0.7	-0.6	1	1
COc1cc(C=Nc2c(C)cc(C)cc2C)ccc1OC(C)=O
→ -3	7	-3	0.2	12	8	-9.4	-1.1	-22	2
O=C(O)/C=C/c1cccc(NC(=O)Nc2ccc([N+](=O)[O-])cc2)c1
→ -6	54	x	5.4	-4	1	-0.9	-0.3	-14	1
COc1ccccc1N=CC1=C(O)CC(c2ccccc2)CC1=O (stereo unspecified)
→ -1	1	-12	-14	11	12	0.2	-0.2	-15	-8
CN(Cc1cccc(F)c1)C(=O)C(c1ccccc1)c1ccccc1
→ 2	3	6	6.7	-4	-28	-2.9	0.2	6	-1
CC1=CC(C)(C)N(C(=O)CSc2nnc(N)s2)c2cc(C)c(C)cc21
→ -7	-17	36	3.3	x	x	x	0.1	11	1

Screening data as filed in PubChem.
